Screens deposited in PubChem by ICCB-Longwood Screening Facility, Harvard Medical School.
Mtb MbtI inh: MbtI salicylate synthase inhibition. purified MbtI enzyme, fluorescence intensity read-out. 100,000 compounds, 0.89% hits. inhibition, %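 (about 17 µg/mL by stock and volumes)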;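 active = above 50% in both replicates, above 80% if mildly self-fluorescent; inactive = the rest, strongly fluorescent compounds included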;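 note: 0% = mean of negative and 100% = mean of positive controls; one replicate is shown; some compounds called inactive have numbers as strong as hits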
Target sequence (P9WFX0 whole entry, looked up): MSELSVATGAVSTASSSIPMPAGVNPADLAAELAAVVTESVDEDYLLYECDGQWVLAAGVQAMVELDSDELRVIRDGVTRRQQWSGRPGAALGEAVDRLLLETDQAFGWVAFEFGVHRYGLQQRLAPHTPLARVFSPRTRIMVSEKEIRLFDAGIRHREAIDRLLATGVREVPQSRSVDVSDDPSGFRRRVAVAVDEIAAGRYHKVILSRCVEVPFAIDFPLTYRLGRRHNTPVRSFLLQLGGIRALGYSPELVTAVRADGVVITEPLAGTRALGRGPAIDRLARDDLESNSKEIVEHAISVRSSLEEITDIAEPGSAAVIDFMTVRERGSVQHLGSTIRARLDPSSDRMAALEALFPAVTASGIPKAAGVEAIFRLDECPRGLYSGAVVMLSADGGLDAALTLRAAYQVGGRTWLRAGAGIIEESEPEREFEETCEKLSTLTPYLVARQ
Polio RdRp inh: poliovirus RNA polymerase inhibition; P03300; poliovirus polymerase elongation, fluorescence polarization; stronger effect = lower value; % elongation, % (compound at 16.7 µg/mL); 150,000 compounds, 0.66% hits; in the data active = % elongation below about 90%; note: some results filed as inactive read as strong as hits
MenB inh: Mtb MenB enzyme inhibition; 100,000 compounds, 0.43% hits; AID 540299; P9WNP5; MenB enzyme assay, absorbance read-out; some hits fall short of the stated cut; inhibition, %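 (about 12 µg/mL by stock and volumes)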;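 active = mean of two replicates above 30%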;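 note: 0% = no compound and 100% = wells with inactive enzyme; the first replicate is given; strong numbers were not always called active; inactives centre near -10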
Target sequence (P9WNP5 whole entry, looked up): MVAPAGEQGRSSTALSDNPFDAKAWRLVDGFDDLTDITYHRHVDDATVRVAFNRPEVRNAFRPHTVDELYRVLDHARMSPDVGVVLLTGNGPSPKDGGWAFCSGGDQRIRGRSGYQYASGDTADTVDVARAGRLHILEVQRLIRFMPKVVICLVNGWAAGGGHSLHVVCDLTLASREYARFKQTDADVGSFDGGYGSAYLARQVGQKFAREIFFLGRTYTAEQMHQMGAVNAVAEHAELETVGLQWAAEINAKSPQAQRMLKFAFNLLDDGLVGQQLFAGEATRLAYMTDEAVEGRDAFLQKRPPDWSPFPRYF
Polio RdRp inh intensity: further read-out of Polio RdRp inh, marked with its call; % elongation; measured here: total intensity read-out; formula for this scale not given here;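 total fluorescence in place of polarization; lower means less elongation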
Active calls of the source: *; i = inactive; . = not tested or not shown. This is a random part of the collection. Share with any hit: about 1.8%.

Values run as follows: Mtb MbtI inh | Polio RdRp inh | Polio RdRp inh intensity | MenB inh
COc1cccc(NC(=S)N=Nc2c(O)n(C)c3ccc(S(=O)(=O)N4CCOCC4)cc23)c1
  -6 | 97 | 103 | 0
c1cc2c(cc1C1CC1)OCCO2
  -4 | 106 | 101 | -28
CSc1nc(C23CC4CC(CC(C4)C2)C3)ccc1C#N
  -19 | 104 | 100 | -8
Cc1ccc(/C=[N+](\[O-])c2ccccc2C)o1
  22 | 103 | 105 | 1
CC1CCCCC1NC(=O)CCCn1c(=O)[nH]c2ccsc2c1=O (stereo not drawn)
  -12 | 102 | 104 | -5
O=C(CCCn1c(=O)c2cccn2c2ccccc21)NC1CCCCC1
  -5 | 103 | 104 | 0
Cc1ccc(CN2CC(C(=O)N3CCCc4ccccc43)CC2=O)cc1 (stereo not drawn)
  -6 | 97 | 97 | -21
O=C(O)c1cc(S(=O)(=O)NNc2ccc(Cl)cc2)ccc1O
  -10 | 99 | 108 | 13
CCOC(=O)c1c(NC(=O)CS(=O)(=O)c2cn(CC)c3ccccc23)sc2c1CCCC2
  19 | 101 | 105 | -18
CC1(C(=O)NC2CCCC2)CCC(=O)N1Cc1cccnc1 (stereo not drawn)
  0 | 100 | 104 | 13
CC(C)(C)N1C(=O)NC(=O)/C(=C\c2ccco2)C1=O
  -10 | 103 | 102 | -152
N#Cc1ccc(/C=N/n2cnc3sc4c(c3c2=O)CCC4)cc1
  -12 | 108 | 112 | -4
COc1cccc(C=Nc2cccc(NC(=O)c3ccc(F)cc3)c2)c1O
  6 | 101 | 98 | -24
Cc1cc(C(C)(C)C)cc(C(C)(C)C)c1NC(=O)/C=C/C(=O)O
  -18 | 103 | 104 | .
CCS(=O)(=O)N1CCCC(C(=O)NCc2cccc(OC)c2)C1 (stereo not drawn)
  -19 | 100 | 102 | -12
Cc1cccc2c(C(=O)NC(C)(C)C)cc(-c3ccccc3)nc12
  . | 107 | 102 | -25
Nc1cc(=O)[nH]c(=O)n1-c1cccc(Cl)c1
  -16 | 100 | 104 | -7
CCNC1CC(=O)N(c2ccc(C(=O)OCC)cc2)C1=O (stereo not drawn)
  6 | 100 | 100 | 30
CSc1nc2ccccc2c(=O)n1-c1ccccc1C
  -2 | 103 | 103 | 3
NS(=O)(=O)c1ccc(CNc2ccc3ccccc3n2)cc1
  100 | 103 | 101 | -13
Nc1c(Nc2cccc(C(=O)O)c2)c2ccccc2oc1=O
  7 | 101 | 103 | 12
O=C(CCC(=O)c1cccs1)NCc1ccccc1
  -11 | 100 | 87 | -31
O=C(C1CCCN(S(=O)(=O)c2cccc3nonc23)C1)N1CCN(c2ccc(F)cc2)CC1 (stereo not drawn)
  2 | 102 | 104 | -18
CCCn1c(SCC(=O)c2ccc3c(c2)OCCO3)nnc1-c1ccco1
  7 | 100 | 99 | -23
Cc1cc2nccc(-c3cccnc3)n2n1
  6 | 105 | 99 | -10
NS(=O)(=O)c1ccc(CCN2C(=O)CCC2=O)cc1
  0 | 105 | 110 | 6
N[C@@H]1[C@@H](O)[C@H](O)[C@@H](CO)O[C@H]1O
  -6 | 101 | 101 | 4
Cc1ccc(NC(=O)N2CCCn3c(SCC(=O)c4ccccc4)nnc32)cc1
  8 | 103 | 106 | -18
CC(C)CCNC(=O)C1CCN(S(=O)(=O)c2ccc3nc4c(c(C(=O)O)c3c2)CCCCC4)CC1
  -9 | 102 | 104 | -8
CC(C)C(NS(=O)(=O)c1ccc2c(c1)oc(=O)n2C)C(=O)N1CCN(c2ccc(Cl)cc2)CC1 (stereo not drawn)
  -5 | 98 | 104 | 5
O=C(NCCc1nc2ccccc2[nH]1)c1ccccc1
  -8 | 100 | 102 | .
COc1ccc(-c2ccc3c(N)c(C(=O)Nc4cccc(C(F)(F)F)c4)sc3n2)cc1OC
  -183 | 102 | 117 | -52
C/C=C/C=N/Nc1nnc2c(n1)[nH]c1ccccc12
  -6 | 102 | 103 | -7
CC1Cc2ccccc2N1C(=O)CSc1nnc(COc2ccccc2Cl)o1 (stereo not drawn)
  6 | 101 | 100 | -25
O=C1OC(c2ccccc2)OC(=O)C1=Cc1ccc(-c2cccc(Br)c2)o1 (stereo not drawn)
  -11 | 101 | 97 | -23
C=CCNC(C(=O)Nc1cccc(OC)c1)c1ccccc1 (stereo not drawn)
  -4 | 104 | 104 | -6
CCCOc1ccc2c(c1)C(=O)c1cc(OCC(=O)O)ccc1-2
  3 | 100 | 102 | 3
Cc1c(Cl)c(=O)oc2cc(OCC(=O)N3CCCC(C)C3)ccc12 (stereo not drawn)
  104 | 103 | 103 | -11
O=C(c1ccc2c(c1)OCO2)c1cn(Cc2ccc(F)cc2)c2cc3c(cc2c1=O)OCO3
  3 | 99 | 101 | 3
NC(=O)C1CCCN(C(=O)CCC(=O)c2cccs2)C1 (stereo not drawn)
  -43 | 105 | 120 | -2
Cc1ccc(-c2n[nH]c(CNC(=O)c3ccc(F)c(F)c3)n2)cc1
  -6 | 102 | 104 | -31
O=C1NC2(CCCCC2)Oc2ccccc21
  6 | 104 | 97 | 8
Cc1ccc(CN(C)c2ccc(S(=O)(=O)N3CCCC3)cn2)cc1
  -18 | 103 | 109 | -2
Cc1ccc(NC(=O)CC2SC(=Nc3ccc(S(N)(=O)=O)cc3)NC2=O)cc1 (stereo not drawn)
  -4 | 102 | 102 | -24
CCNS(=O)(=O)c1ccc(NC(=O)c2ccccc2OCC)cc1
  -3 | 100 | 101 | -10
CC(C)(C)NC(=O)N1CCC(Nc2nccc(C(F)(F)F)n2)CC1
  6 | 102 | 98 | 2
Cc1cc2c3c([nH]c2cc1S(=O)(=O)NCCc1ccco1)CCCC3=O
  -9 | 101 | 103 | -6
Cc1ccc(NC2=NC(C)(C)CS2)cc1Cl
  22 | 105 | 106 | -15
CCC(C)NC(=O)Cc1coc2cc(C)ccc12 (stereo not drawn)
  -36 | 105 | 101 | -10
COc1ccc(NS(=O)(=O)c2ccc3oc(=S)n(CN4CC(C)OC(C)C4)c3c2)cc1 (stereo not drawn)
  16 | 99 | 105 | -70
Cc1cc(=O)n(-c2cccc(C(F)(F)F)c2)[nH]1
  25 | 99 | 98 | .
O=C(Sc1nnnn1-c1ccccc1)c1ccccc1Br
  25 | 101 | 102 | -65
Cc1ccc(C)c(S(=O)(=O)NCc2ccccc2)c1
  5 | 102 | 111 | -13
O=C(O)c1ccc(CN2C(=O)COc3ccccc32)o1
  -4 | 101 | 103 | -3
O=C(O)Cc1cccc2ccccc12
  3 | 100 | 102 | -15
O=C(Nc1ccc(-n2nncc2-c2ccccc2)cc1)c1c(F)cccc1F
  -5 | 102 | 108 | -15
FC(F)(F)c1cc(-c2nc(=S)[nH][nH]2)cc(C(F)(F)F)c1
  9 | 111 | 117 | -23
CCOC(=O)N1CCC2(CC1)C(C#N)=C(N)SC(N)=C2C#N
  8 | 101 | 102 | -128
COCC(C)n1c(COc2ccccc2F)nnc1SCC(=O)N(C(C)C)C(C)C (stereo not drawn)
  -10 | 104 | 101 | -18
Cc1oc(-c2ccccc2)nc1Cn1c(SCc2cccc(Cl)c2)nc2ccncc21
  3 | 105 | 104 | -47

The list continues:
Values run as follows: Mtb MbtI inh | Polio RdRp inh | Polio RdRp inh intensity | MenB inh
Cc1ccc(N=C2NC(=O)/C(=C\c3ccc4c(c3)n(C)c(=O)n4C)S2)cc1
  -11 | 103 | 104 | -16
CC(/C=N/NC(=O)c1cc(-c2ccc3c4c(cccc24)CC3)n[nH]1)=C\c1ccco1
  -1 | 103 | 101 | -35
COc1nn2nnnc2c2ccccc12
  -4 | 100 | 103 | 0
CCOC(=O)C1CCN(Cc2coc3ccc(C)cc3c2=O)CC1
  16 | 100 | 104 | -4
Cc1cc(N2CCN(c3ccccc3F)CC2)n2nc(C)c(-c3ccc(Cl)cc3)c2n1
  189 | 99 | 103 | 3
COc1ccc2oc(=O)c(S(=O)(=O)c3ccc(C(C)C)cc3)cc2c1
  10 | 102 | 104 | -9
COc1ccc(Cl)cc1NC(=O)c1nnn(CC(=O)Nc2c(C)cccc2C)c1N
  48 | 102 | 105 | -34
CC(=O)Nc1ccc2nc3c(=O)n(C4CCCCC4)c(=O)[nH]c3nc2c1
  1 | 88 | 135 | -15
CN1CCN(C(=O)CCCC(=O)O)CC1
  -21 | 101 | 100 | -33
CC(=O)Nc1cccc(C(=O)N2CCCCC2)c1
  . | 100 | 103 | -6
C=CCN1C(=O)N(CC=C)c2cccc3cccc1c23
  -11 | 102 | 102 | -35
CC(C(=O)NCc1ccco1)n1c2ccccc2c2cnn(C)c(=O)c21 (stereo not drawn)
  21 | 104 | 105 | -45
O=C(ON1C(=O)c2ccccc2C1=O)C1CCCCC1
  -35 | 100 | 104 | -15
O=C(OCCn1ncc2ccccc2c1=O)c1cccs1
  -3 | 107 | 106 | 10
CCN1CCN(C(=O)C(c2ccccc2)N2Cc3ccccc3C2=O)CC1 (stereo not drawn)
  -13 | 102 | 105 | 9
O=C1/C(=C/c2cc3ccccc3o2)CC/C1=C\c1cc2ccccc2o1
  3 | 108 | 110 | -20
O=C(CCCn1c(=O)c2cccn2c2cccnc21)NCCc1ccccc1
  9 | 101 | 105 | 7
COc1ccc(NCc2c(C#N)c(C)nn2-c2ccccc2)cc1
  26 | 107 | 111 | -89
CCOC(=O)C1=C(Cn2nnc(C(=O)OC)c2C(=O)OC)NC(=O)NC1c1ccccc1 (stereo not drawn)
  1 | 101 | 97 | -2
Cc1ccc(S(=O)(=O)NCC(c2ccccc2)N2CCCCC2)cc1 (stereo not drawn)
  -5 | 101 | 101 | .
O=C(Cc1ccc(-n2cccc2)cc1)N1CCc2ccccc21
  0 | 99 | 92 | -14
Cc1ccc(NP(C(C)C)C(C)C)nc1
  i | 98 | 101 | 22
CC(=O)Nc1ccc(C#N)c(OC(F)F)c1
  3 | 103 | 102 | -28
COC(=O)c1[nH]c(CN2C(=O)c3ccccc3S2(=O)=O)c(C(=O)OC)c1C
  -3 | 102 | 106 | -16
CC(=O)N1CCN(CCN=CC2=C(O)CC(c3ccco3)CC2=O)CC1 (stereo not drawn)
  32 | 102 | 103 | 0
CCCC1CCC(C2CCC(C#N)CC2)CC1 (stereo not drawn)
  . | 102 | 97 | 8
COc1ccc(CNC(=O)C2COc3ccccc3O2)cc1 (stereo not drawn)
  2 | 100 | 102 | 2
S=C=NCC1CCCO1 (stereo not drawn)
  -16 | 101 | 98 | -5
CC1(C)COC(c2sccc2C(=O)N(C(=O)NC2CCCCC2)C2CCCCC2)=N1
  -2 | 102 | 110 | 12
COc1cccc(C(C)NC(=O)c2ccccc2OC)c1 (stereo not drawn)
  -5 | 102 | 101 | -21
CCSc1ncc(Cl)c(C(=O)Nc2ccccc2)n1
  -5 | 105 | 106 | -19
CN(C)C(=O)Cn1c(Cl)nc2ccccc21
  -3 | 100 | 102 | 12
O=C1Nc2ccccc2C1c1nc2ccccc2[nH]c1=O (stereo not drawn)
  4 | 105 | 109 | .
Cc1cccc(NNC(=O)CCc2ccccc2)c1
  9 | 102 | 100 | 11
O=C(CSc1nc(=O)n2ccccc2n1)OCc1ccccc1
  -2 | 106 | 109 | -19
Cc1[nH]nc(Nc2ccccc2)c1N=Nc1ccc(Br)cc1
  -3 | 104 | 104 | -32
COC(=O)c1ccc(COc2ccc3c(-c4ccccc4)cc(=O)oc3c2C)o1
  7 | 103 | 109 | -11
Cc1ccc2nc(NC(=O)c3ccccc3F)sc2c1
  . | 110 | 103 | -32
Cc1cccc(C)c1NC(=O)C1(NC(=O)C(C)O)CCCC1 (stereo not drawn)
  -2 | 102 | 97 | .
N=c1sc(C(=O)c2ccccc2)c2scc(-c3ccccc3)n12
  . | 102 | 103 | -38

Gathered by group: the entries above with a furan ring, fused or not
Values run as follows: Mtb MbtI inh | Polio RdRp inh | Polio RdRp inh intensity | MenB inh
Cc1ccc(/C=[N+](\[O-])c2ccccc2C)o1
  22 | 103 | 105 | 1
CC(C)(C)N1C(=O)NC(=O)/C(=C\c2ccco2)C1=O
  -10 | 103 | 102 | -152
CCCn1c(SCC(=O)c2ccc3c(c2)OCCO3)nnc1-c1ccco1
  7 | 100 | 99 | -23
O=C1OC(c2ccccc2)OC(=O)C1=Cc1ccc(-c2cccc(Br)c2)o1 (stereo not drawn)
  -11 | 101 | 97 | -23
Cc1cc2c3c([nH]c2cc1S(=O)(=O)NCCc1ccco1)CCCC3=O
  -9 | 101 | 103 | -6
CCC(C)NC(=O)Cc1coc2cc(C)ccc12 (stereo not drawn)
  -36 | 105 | 101 | -10
O=C(O)c1ccc(CN2C(=O)COc3ccccc32)o1
  -4 | 101 | 103 | -3
CC(/C=N/NC(=O)c1cc(-c2ccc3c4c(cccc24)CC3)n[nH]1)=C\c1ccco1
  -1 | 103 | 101 | -35
CC(C(=O)NCc1ccco1)n1c2ccccc2c2cnn(C)c(=O)c21 (stereo not drawn)
  21 | 104 | 105 | -45
O=C1/C(=C/c2cc3ccccc3o2)CC/C1=C\c1cc2ccccc2o1
  3 | 108 | 110 | -20
CC(=O)N1CCN(CCN=CC2=C(O)CC(c3ccco3)CC2=O)CC1 (stereo not drawn)
  32 | 102 | 103 | 0
COC(=O)c1ccc(COc2ccc3c(-c4ccccc4)cc(=O)oc3c2C)o1
  7 | 103 | 109 | -11
